Vaccinia mCherry: qHTS for Stage-Specific Inhibitors of Vaccinia Orthopoxvirus: mCherry Reporter Primary qHTS | Vaccinia virus mCherry reporter infection, fluorescence; about a quarter of the inactives have no number | Potency, µM (doses to about 36.5 µM), without a hit: at the highest dose activity change, negative = inhibition, actives largely listed as inhibitors | 310,000 tested, 0.63% active; active = well fitted inhibition curve with a large enough effect; inconclusive = small, poorly fitted or top-dose-only effect; inactive = no such curve, though single readings can be large or run the other way; tested in A549 cells; also: nearly all actives have a fitted effect of over 35% in size; inactives centre near -10
VACV Venus inh: qHTS for Stage-Specific Inhibitors of Vaccinia Orthopoxvirus: Venus Reporter Primary qHTS; Potency, µM (top dose mostly 36.5 µM), inactives show top-dose activity change, negative = inhibition, most hits filed as inhibitors; Vaccinia virus Venus reporter expression, fluorescence; 330,000 tested, 0.46% active; active means well fitted inhibition curve with a large enough effect; inconclusive means small, poorly fitted or top-dose-only effect; inactive means no such curve, though single readings can be large or run the other way; tested in A549 cells; also: nearly all actives have a fitted effect of over 30% in size; inactives centre near -10
* hit, by the source's call; i = inactive; ? = inconclusive; . = no result given; & = joins results of further samples; [ ] = remark or other dose. % is scaled to controls: 0 for no effect and ±100 for the full control effect; potency is read from the fitted curve at half-maximal effect.

SMILES	VACV Venus inh	Vaccinia mCherry
CCOC(=O)C1CCCN(CCC(=O)Nc2ccc(F)c(F)c2)C1 (stereo not given)	-16.0%	-4.6%
Cc1ccc(NC(=O)C2CCN(c3ncnc4sc(C)c(C)c34)CC2)cc1S(=O)(=O)N(C)C	-19.1%	i
COc1ccc(CCNS(=O)(=O)c2cc3c4c(c2)CCN4C(=O)CC3)cc1	-20.2%	-3.1%
O=C(Cn1cc([N+](=O)[O-])cn1)NC1CCCCCC1	-8.8%	i
Cc1nn(-c2ccccc2)c(C)c1CN	-5.7%	-8.0%
Cc1nc2c(-c3ccccc3)c(C)[nH]n2c(=O)c1Cc1ccc(C(C)C)cc1	?	?
O=C(NC1Cc2ccccc2C1)c1cc(COc2ccc(F)cc2Cl)on1	-13.6%	-0.3%
O=C(NCc1ccccc1)C1CNCC(C(=O)NCc2ccccc2)C1 (stereo not given)	-6.6%	-0.1%
CN(Cc1cc(Br)cc(Br)c1N)C1CCCCC1	-0.9%	-7.0%
COc1ccc(S(=O)(=O)Nc2ccc(-c3ccc(N4CCCC4)nn3)cc2)cc1C	-18.6%	-1.3%
COc1ccc(CCC(=O)N2CCN(S(=O)(=O)c3ccc4ccccc4c3)CC2)cc1	?	.
OC[C@H]1O[C@H](c2nc(-c3nc(-c4cccs4)no3)cs2)C[C@@H]1O	-9.8%	-12.2%
CCN(CC)S(=O)(=O)c1cccc(NC(=O)CCNC(=O)NC23CC4CC(CC(C4)C2)C3)c1	33.5%[activator]	38.2%[activator]
Nc1c(Cl)cnc(C(Cl)(Cl)Cl)c1Cl	-12.1%	-23.0%
Cc1ccc(CNC(=O)CCCC(=O)Nc2cc(C)on2)cc1	-19.0%	-5.1%
Cc1cc(=O)[nH]c2cc(Cl)ccc12	19.7%	20.4%
COc1ccc(/C=C(\NC(=O)c2ccco2)C(=O)N2CCCCC2)cc1	-0.5%	i
CCOC(=O)N1CCN(CCC(=O)Nc2cc(C)ccc2OC)CC1	-5.4%	-3.2%
COc1cc(C2CC(c3c(C)cc(C)[nH]c3=O)=NN2c2ccccc2F)cc(OC)c1OC (stereo not given)	-3.7%	i
Cc1cccc(C)c1NC(=O)C1(C)CSCC(=O)N1CCc1ccc(O)cc1 (stereo not given)	-11.9%	-21.2%
Cc1cc(O)c(C(c2cccc(Cl)c2)N2CCN(c3ccccc3)CC2)c(=O)n1Cc1ccco1 (stereo not given)	-10.3%	-9.7%
Cc1occc1C(=O)NCCCCc1ccccc1	-12.8%	-19.2%
COc1cc(OC)cc(C(=O)Nc2ccc3c(c2)OCCO3)c1	-7.6%&0.7%	6.3%
COC(=O)C1C(=O)C=C(Nc2ccc(F)cc2)CC1c1ccc(OC)cc1 (stereo not given)	-8.8%	-18.5%
C/C(=N/NC(=O)CNC(=O)c1ccccc1)c1ccc(C)cc1	-2.7%	i
CC(C)C[C@H]1COc2cc(N3CCN(Cc4ccccc4F)CC3)ccc2S(=O)(=O)N1	-12.0%	-9.1%
c1ccc(-c2ccccc2OCCCCN2CCCCCC2)cc1	-26.4%	-17.0%
CCCn1nnc(NC(=O)c2ccc(Cl)cc2Cl)n1	-1.1%	-9.6%
Cc1ccc(Cn2c(SCc3ccc(C(=O)N4CCCCCC4)cc3)nc3ccncc32)cc1	?	-27.8%
CCN1CCC(N(Cc2cccc(OC)c2)C(=O)Nc2ccc(C)cc2Cl)CC1	-10.1%	-5.4%
O=C(CCc1ccc(S(=O)(=O)N2CCOCC2)cc1)OCc1nc2ccccc2s1	-1.3%	0.3%
O=C1NC(=O)C(CCc2ccncc2)(Cc2ccc(OCc3ccccc3)cc2)C(=O)N1	-8.5%	i
CC(C)(C)N1CC(c2nc3ccccc3n2CCOc2ccccc2)CC1=O (stereo not given)	-13.5%	.
COc1cc(CNC[C@H]2O[C@@H](n3cc(C)c(=O)[nH]c3=O)C[C@@H]2O)ccc1OCc1cccc(Cl)c1	-15.1%	2.0%
CCn1cc(C(=O)NCC(C)C)c(=O)c2cc(F)c(N3CCN(C)CC3)cc21	-3.5%	-13.7%
Oc1ccc(/C=N/Nc2nccnc2Cl)c(O)c1	?	2.51µM*
CCOc1ccc(-c2cc(C(=O)NN)[nH]n2)cc1	-9.9%	-24.8%
O=C1CSC(c2ccc(F)cc2)N1c1nc2ccccc2s1 (stereo not given)	-3.4%	-9.0%
CCCCNc1nc(=S)[nH]c2cc(OC)c(OC)cc12	-26.7%	-15.8%
COc1ccc(NC(=O)c2ccc(CN3CCN(c4ccccc4)CC3)cc2)cc1	-21.0%	.
CCc1ccc(NC(=S)NCC2CCCN2CC)cc1 (stereo not given)	0.1%	i
COc1cccc2cc(C(=O)N3CCN(c4ncccn4)CC3)c(=O)oc12	3.4%	-8.2%
COc1cccc(CNC(=O)C(=O)NCCC2CCCCN2S(=O)(=O)c2ccccc2)c1 (stereo not given)	-22.1%	?
C(=C\c1ccc2nncn2c1)/c1ccccc1	11.7%	18.6%
O=C1CC(c2ccccc2)CC(O)=C1C=Nc1ccc(O)cc1 (stereo not given)	?	?
ClC1=C(Cl)C2(Cl)C3C(Cl)C=CC3C1(Cl)C2(Cl)Cl (stereo not given)	-11.0%&5.2%	0.8%
CC(C)C[C@H]1CN(CCCC[C@H]2CNC(=O)C(=O)N2CCc2ccccc2)C(=O)C(=O)N1CCC1CCCCC1	-24.5%	-28.6%
COc1ccc(CC(=O)NNc2ncnc3c2cnn3C)cc1OC	-3.3%	-7.5%
COc1ccc(S(=O)(=O)NCCSCc2ccc(Cl)cc2)cc1NC(C)=O	-19.6%	?
O=S(=O)(Nc1ccc(-c2cn3c(n2)SCC3)cc1)c1cc(F)ccc1F	-1.2%	-8.3%
COc1ccc(C2NS(=O)(=O)OCC2C)cc1 (stereo not given)	-15.9%	i
Cc1ccc(S(=O)(=O)CCC(=O)OC(C)C(=O)N2CCc3ccccc32)cc1 (stereo not given)	-7.6%	-17.3%
CCOC(=O)C1(CC)NC(c2cccc(F)c2)C2C(=O)N(CC)C(=O)C21 (stereo not given)	-2.6%	-5.1%
COC(=O)C(C(=O)OC)c1ccc(NC(=O)c2cccc(Cl)c2)cc1	-7.5%	-13.2%
C#CCOCCOCCOCCNc1nc(N2CCN(C(=O)CCCCCCCCCCNC(=O)Cn3cc(C[C@@H](C)O)nn3)CC2)nc(N2CCN(C(=O)CCCCCCCCCCNC(=O)[C@@H]([C@H](C)O)n3cc(C)nn3)CC2)n1	?	-26.1%
O=C(Nc1ccc(NC(=O)c2cccs2)cc1)c1cccc(Br)c1	1.4%	-3.1%
COc1ccccc1OCCSc1ncnc2nc[nH]c12	-15.8%	.
CC(C)(C)c1ccc(CC(=O)N2CCC2(C)C(=O)NS(=O)(=O)c2ccc3c(c2)CCO3)cc1 (stereo not given)	-5.7%	i
CCn1c(NC(=O)C(C)C)c(-c2cccs2)c(=O)c2ccccc21	-12.8%	-14.7%
O=C(COC(=O)/C=C/c1cccc([N+](=O)[O-])c1)NCC1CCCO1 (stereo not given)	-2.9%	-5.6%

Other results follow.
SMILES	VACV Venus inh	Vaccinia mCherry
C/C=C(/C)C(=O)Nc1cccc(C2=NOC3(C2)C[C@@H](C(N)=O)N(C(=O)C2(C)CC2)C3)c1 (stereo not given in full)	-5.4%	i
Cn1c(-c2cccc(OCc3ccccc3)c2)nc2c1c(=O)[nH]c(=O)n2Cc1ccccc1	-3.4%	-15.8%
COc1cc2cc(Br)cc(Br)c2nc1C	-17.8%	-13.3%
CCOc1cc(CNCCc2cccc(F)c2)ccc1OC	-12.2%	8.4%
O=C(O)CC(SCC(=O)Nc1ccccc1)C(=O)O (stereo not given)	-9.3%	-27.7%
C=CCn1c(Oc2cccc(C)c2)nc2c1c(=O)n(C)c(=O)n2C	-16.9%	-4.2%
Cc1ccc(Nc2nc3nonc3nc2N(C)C)cc1	-21.5%	i
CCOc1ccc(NC(=O)c2oc3ccccc3c2NC(=O)C2CCCCC2)cc1	2.3%	-3.7%
CCCNS(=O)(=O)c1cc(-c2nnc3c4ccccc4c(C)nn23)ccc1OC	-9.1%	-10.5%
Cc1c(C(=O)NCc2cccnc2)oc2ccc(S(=O)(=O)N3CC(C)CC(C)C3)cc12 (stereo not given)	?	-14.4%
Cc1cccc(N2CCN(C(c3ccc(N(C)C)cc3)c3nnnn3C(C)(C)C)CC2)c1C (stereo not given)	-19.9%	-1.6%
CCCC(=O)Nc1ccc(NC(=O)C23CC4CC(CC(C4)C2)C3)cn1	-11.3%	-1.6%
CN(C)N1C(=O)CC(NNC(=O)c2ccncc2)C1=O (stereo not given)	-1.8%	-13.9%
CCOC(=O)c1sc2nc(SCC(=O)NCc3ccco3)n(Cc3ccccc3)c(=O)c2c1C	2.9%	4.3%
CCOc1ccc2nc(SCC(=O)NC(=O)NCc3ccco3)sc2c1	-23.8%	.
CCN(CC)CC(=O)Nc1c2c(nc3ccccc13)N(C)CC2	-19.8%	i
Cc1ccc(NC(=O)CN2C(=O)CN(C)C2=O)cc1S(=O)(=O)N1CCCCC1	-1.3%	-5.2%
COc1cccc(C(=O)OCC(=O)NC(=O)NC2CCCC2)c1O	-0.8%	-1.7%
COC(=O)C1=C(C)NC(C)=C(C(=O)OC)C1C1CC=CCC1 (stereo not given)	-7.1%	.
NC(=O)C1CCN(CCCNC2CC(=O)N(Cc3ccc(N4CCCC4=O)cc3)C2=O)CC1 (stereo not given)	-2.6%	-3.6%

A different layout for 2 compounds above.
COc1cc2cc(Br)cc(Br)c2nc1C
  VACV Venus inh = -17.8%
  Vaccinia mCherry = -13.3%

CN(Cc1cc(Br)cc(Br)c1N)C1CCCCC1
  VACV Venus inh = -0.9%
  Vaccinia mCherry = -7.0%

Next section:
SMILES	VACV Venus inh	Vaccinia mCherry
COc1cccc(C=NNC(=O)C2CC2)c1	-9.5%	i
COc1ccc(-c2ccc([C@H]3[C@@H]4C=CCC[C@@]4(C)C(=O)N3Cc3ccccc3)c(F)c2)cc1	-26.8%	-4.2%
CC1CCCCC1NC(=O)CO/N=C/c1ccccc1OC(F)F (stereo not given)	-5.3%	i
O=C(O)CCCC(=O)Nc1ccccc1C(=O)N1CCOCC1	-14.6%	i
O=C(O)c1ccc(CSc2nnc(-c3ccc(Cl)cc3)o2)cc1	-6.6%	-14.4%
N#CC1(Nc2ccc3ccccc3c2)CCCC1	10.7%	?
CN1/C(=C/C(=O)C2CCC2)Sc2ccccc21	-23.5%	-8.9%
Cc1ccccc1CC(=O)NCC1CCCCC1	2.8%	-15.2%
CC(=O)Cn1c(C(F)(F)F)nc2ccccc21	6.1%	.
N#CC1=C(N)C2=C(N3CCCCC3)CCCC2C1(C#N)C#N (stereo not given)	4.9%	2.8%
CC12CCC(=O)C=C1CCC1C2CCC2(C)C(C(=O)CO)CC(O)C12 (stereo not given)	-9.7%	-10.2%
CCCCNC(=O)Cn1c(SCc2cccc(F)c2)nc2ccncc21	-14.6%	12.2%
COC(=O)c1ccc(NC(=O)C(C)Sc2nc(=O)cc(N)n2CCc2ccccc2)cc1 (stereo not given)	-3.1%	-1.9%
Cc1nc(C)n(C(Oc2ccc(Cl)cc2Cl)C(=O)C(C)(C)C)n1 (stereo not given)	-12.0%[7.34 µM]	-11.4%[7.34 µM]
CCn1c(COc2ccccc2)nnc1SCC(=O)NCc1ccco1	-16.9%	i
Cc1[nH]c2ccc(F)cc2c1CCN(Cc1cccnc1)C(=S)NC(C)(C)C	-7.8%	-2.7%
C/C(=N\NC(=O)COc1ccccc1-c1ccccc1)c1ccccn1	?	?
CCCCNC(=O)[C@@](CC)(ONc1ccccc1C(F)(F)F)c1cccc2ccccc12	-6.4%	-12.1%
NC(=O)c1c(NC(=O)c2ccc(F)cc2)sc2c1CCC2	-20.4%	-4.1%
Cc1cccc(Cn2c(CNS(=O)(=O)c3ccc(C(C)C)cc3)nc3cccnc32)c1	-23.7%	-28.2%
O=C(CO/N=C/c1cccc([N+](=O)[O-])c1)NC1CCCCC1	0.5%	-9.6%
COc1ccc(C2C(=O)N(C3CCC(C)CC3)CC(=O)N2C2CCCCC2)cc1OC (stereo not given)	-5.0%	0.5%
Cc1ccc(C(=O)N2Cc3ccccc3CC2C(=O)O)cc1 (stereo not given)	3.9%	i
COc1ccccc1NC(=O)COC(=O)CC(C)(C)CC1=NS(=O)(=O)c2ccccc2N1	-12.7%&-8.9%	-2.9%
CC(C)(C)OC(=O)[C@H](Cc1ccccc1)NC(=O)c1nc[nH]c1C(=O)N1CCc2ccccc2C1	-6.8%	i
CCCCn1c(N)c(N(CC)C(=O)CSCc2c(C)noc2C)c(=O)[nH]c1=O	-9.8%	i
O=C1NC(Cc2ccc(O)cc2)c2nc3cc(F)ccc3c(=O)n2-c2cc3ccccc3cc21 (stereo not given)	?	-13.9%
CNC(=S)N(CCc1c(C)[nH]c2ccc(C)cc12)Cc1cccnc1	-15.8%	?

Assay outcomes as filed in PubChem.
